# From PubChem
# NPYLR7 ag: activates Aedes aegypti NPYLR7 receptor | HEK293T NPYLR7/Galpha15, GCaMP6s calcium fluorescence | activation, % at 10 µM | 270,000 compounds, 0.15% hits | AID 1259423; in the data active = activation above about 40%;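 also: 0% = vehicle and 100% = reference agonist at the receptor; some compounds past the cut are filed as inactive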
# NPYLR7 ag max-min: also measured in NPYLR7 ag; calls as there; activation, %; measured here: Max-Min RFU normalised activation; some inactives read as strong as hits;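 span of the calcium signal over five minutes; 0% = vehicle and 100% = native peptide agonist; compound fluorescence can raise it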
# Numbers without * were called inactive; & = joins results of further samples. This is a subset, so the mix of outcomes need not match the whole.
SMILES,NPYLR7 ag,NPYLR7 ag max-min
CCCCCCc1ccc(C(=O)Nc2ccc(OC(=O)c3ccc(CCCCCC)cc3)c3c2C(=O)c2c(NC(=O)c4ccc(CCCCCC)cc4)ccc(OC(=O)c4ccc(CCCCCC)cc4)c2C3=O)cc1,-5,-8
Cc1ccc(NC(=O)/C=c2/[nH]c(=O)/c(=C/c3ccc(C#N)cc3)s2)cc1,13,10
COC(=O)c1ccccc1N=Cc1c(O)n(C)c(=O)n(C)c1=O,14,8
CCCCCCC(C)NC(=O)N1CCOCC1 (stereo not drawn),5,3
COc1cc(C)c(S(=O)(=O)NCc2ccco2)cc1C,3,13
CC1CCCC(N=C2NN=C(c3ccc(N(C)S(C)(=O)=O)cc3)CS2)C1C (stereo not drawn),2,1
CC1(C)Cc2ccccc2C(/C=N/O)=N1,-2,-1
CCOC(=O)c1c(C)oc2c1c(CN1CCC(C)CC1)c(O)c1ccccc12,-2,-8
COc1ccccc1NC(=O)C1CCN(C(=O)C2CCCN(C(=O)N3CCCC3)C2)CC1 (stereo not drawn),-7,-8
CN(Cc1nc(-c2ccccn2)no1)CC1COc2ccccc2O1 (stereo not drawn),18,11
COc1cccc(N2C(=O)CN=C2Nc2nc(C)cc(C)n2)c1,-5,-12
O=[N+]([O-])c1ccc(-c2cn3cccnc3n2)cc1,2,2

# Rewritten as tab-separated lines: two of the compounds above
mol	NPYLR7 ag	NPYLR7 ag max-min
CCOC(=O)c1c(C)oc2c1c(CN1CCC(C)CC1)c(O)c1ccccc12	-2	-8
COc1ccccc1NC(=O)C1CCN(C(=O)C2CCCN(C(=O)N3CCCC3)C2)CC1 (stereo not drawn)	-7	-8

# Next structures:
SMILES,NPYLR7 ag,NPYLR7 ag max-min
COCCN(Cc1nccs1)Cc1ccccc1F,15,4
Cc1cccc(-c2nccn2C(C)Cn2nc(C)cc2C)n1 (stereo not drawn),22,11
CC1CCN(c2nc(-c3ccccc3)nc3c2CN(C(=O)Nc2c(Cl)cccc2Cl)CC3)CC1,14,22
CCCc1[nH]n(-c2ccc(Cl)c(Cl)c2)c(=O)c1C1=C([n+]2cccc(C)c2)C(=O)N(c2ccccc2)C1=O,-14,-6
CCN(Cc1noc(CC(C)C)n1)C(=O)C1CC=CCC1 (stereo not drawn),0,-1
Cc1ccc(-n2ncc3c(-n4nc(C)cc4NC(=O)c4ccco4)ncnc32)c(C)c1,3,2
COc1ccccc1OCC(=O)NCc1cc(-c2cc3ccccc3o2)on1,3,1
Cc1cnn(-c2ccc(C(C)NC(=O)c3ccn[nH]3)cc2F)c1 (stereo not drawn),-1,-1
Cc1c(Cl)cccc1N1CCN(C(=O)C2CC2)C(C)C1=O (stereo not drawn),-5,5
Fc1cccc(Cl)c1C=NN1CCN(Cc2ccc(Cl)cc2)CC1,13,3
CCc1c(C(=O)N2CCCCC2)cnn1-c1ccc(=O)[nH]n1,3,3
Cc1ccc(CS(=O)(=O)CC(=O)N(C)C(C)c2ccccc2)cc1 (stereo not drawn),10,8
COc1ccc2c(c1)C(=O)C(=Cc1ccccc1)CC2,-6,-9
CCOC(=O)C(Cc1ccc(Cl)cc1)NC(=O)c1ccc(-n2nc(C)c(CCC(=O)OC)c2C)cc1 (stereo not drawn),7,-2
CN(C)c1nc(N)nc(COc2ccccc2)n1,-2,-3
Cc1nc2c(=O)n(Cc3ccccc3)nc(-c3cccs3)c2s1,4,1
c1ccc(-c2nnc3sc(C4COc5ccccc5O4)nn23)nc1 (stereo not drawn),-2,-1
Cc1nn(Cc2csc(-c3cnn(C)c3)n2)c(=O)c(C#N)c1C,5,3
O=C(NC1CCC(NC(=O)[C@H]2CCCN2C(=O)c2cc(C(F)(F)F)cc(C(F)(F)F)c2)CC1)c1ccccc1 (stereo partly drawn),23,22
COc1ccc(-n2c(=O)[nH]c3c(C(N)=O)nc(-c4cccs4)nc32)cc1OC,-5,-9
COC(=O)c1cccc(CC2(C)C(=O)Nc3ccc(OC)cc32)c1 (stereo not drawn),1,3
CN(C)c1ccc(Nc2nc(-c3cccs3)cs2)cc1,10,3
CCOC(=O)CC(=O)CSc1nc2nc(C)cc(C)n2n1,-1,-5
CC1(C(=O)NC2CCCCCC2)CCN1C(=O)CC(c1ccccc1)c1ccccc1 (stereo not drawn),10,9
COc1ccc(C2=NN(C(=O)CN3CCOCC3)C(c3ccccc3OC)C2)cc1OC (stereo not drawn),1,12
CCCCN(CC(=O)N(CCOC)Cc1cccn1C)C(=O)c1cc(OC)cc(OC)c1,-13,-10
CCC(C)C(NC(=O)c1cccc(F)c1)C(=O)Nc1nnc(-c2ccc(F)cc2)s1 (stereo not drawn),28,24
CCN(C(=O)Cn1nnc(-c2cccs2)n1)C1=CCCC1,17,10
Cc1ccc(C2=NOC(C)(C)C(=O)N2)cc1,6,2
O=C(COc1ccccc1)N1C[C@H]2[C@H](O)[C@@H]3C[C@H](c4ccc(F)cc4)[C@@H](O3)[C@H]2C1,5,15
CC(C)=CCCC(C)NC(=O)NC1CCCCC1 (stereo not drawn),3,10
Cc1ccc(-c2c(C)nn3c(NCCc4ccccc4)cc(C)nc23)cc1,6,7
O=C(C1=C(O)C(=O)N(Cc2cccnc2)C1c1ccc(Cl)c(Cl)c1)c1cccs1 (stereo not drawn),0,-2
Cc1ccc(OCC(=O)N=Nc2c(O)[nH]c3ccc(F)cc23)c(Br)c1,-4,-9
Clc1ccc2c(N3CCOCC3)nc(-c3ccco3)nc2c1,15,23
CCc1nc2ccc(C(=O)NCCCN3CCCC3=O)cn2c1N(CC)Cc1ccc(OC)c(OC)c1,14,7
Cc1nccn1CCCCNC(=O)C1CCCN1C1CCCC1 (stereo not drawn),2,2
COc1cccc(C(=O)N2CCN(c3ccc4c(c3)OCO4)C(=O)C2C)c1 (stereo not drawn),-8,-3
CC(C)CN1CCCC1(C)C(=O)Nc1nc2ccccc2[nH]1 (stereo not drawn),4,1
O=c1[nH]c(CS(=O)(=O)c2ccccc2)nc2ccccc12,-2,-5
CC(C)CC(=O)N1CCC(N2CCCC(C(=O)NCc3cccnc3)C2)CC1 (stereo not drawn),4,3
Cc1csc(=Nc2cccc(Cl)c2)n1N1CCOCC1,-5,-7
COc1cc(C(=O)N2CCc3ccccc3C2c2ccc(C)cc2)cc(OC)c1OC (stereo not drawn),-1,9
O=C(NCc1ccco1)c1csc(Nc2ccccc2)n1,-3,-4
CCc1cc(C(=O)N2CCCCC2C(=O)Nc2cccc(-c3cccc(OC)c3)c2)n(C)n1 (stereo not drawn),3,0
O=C(O)/C=C/c1ccc(NC(=O)C2CCCN2S(=O)(=O)c2ccccc2F)cc1 (stereo not drawn),5,2
CN(C)CCCN(C(=O)c1ccc([N+](=O)[O-])s1)c1nc2cc3c(cc2s1)OCCO3,0,-1
CC(C)C1CN(C(=O)Cn2cncn2)CCC(=O)N1CC1CC1 (stereo not drawn),21,6
Cc1ccc2nc(SC(C)c3ccccc3)nc(=O)n2c1 (stereo not drawn),2,1
O=C(NCCc1ccccn1)C1COc2ccccc2C1 (stereo not drawn),-2,-3
Cc1ccc(OCc2ccc(C#N)cc2)c2c1C(C)CC2=O (stereo not drawn),1,13
CCc1[nH]c2c(CNS(=O)(=O)c3cccnc3)cc(C)cc2c1C,0,-5
COc1ccc(CC(=O)Nc2nc(OCCN3CCCC3=O)cnc2-c2cc(Cl)cc(Cl)c2)cc1,-4,-9
O=C(NCCN1CCN(S(=O)(=O)c2ccc3ccccc3c2)CC1)C(=O)Nc1ccc(Cl)cc1,9,5
COc1ccc(S(=O)(=O)N2CCOCC2)cc1N1CCN(C(=O)CSc2ccccc2)CC1,2,-1
CCC(CN)Oc1ccccc1Cl (stereo not drawn),13,8
O=C(Cn1cnnn1)NCC1(c2c(F)cccc2F)CCCC1,7,8
CCSc1nc(NC(C)C)c2cnn(CCNC(=O)Cc3c(C)noc3C)c2n1,2,1
CCC(=O)c1ccc(OCC(O)Cn2nc(C)c(Br)c2C)cc1 (stereo not drawn),7,8
CN(CCC1CCCCO1)c1cc(N2CCOCC2)ncn1 (stereo not drawn),-8,-9

# Record cards, from the list above. Screens in order: NPYLR7 ag, NPYLR7 ag max-min
# Listed for Cc1ccc(OCc2ccc(C#N)cc2)c2c1C(C)CC2=O (stereo not drawn) : 1, 13
# Listed for O=C(NCCN1CCN(S(=O)(=O)c2ccc3ccccc3c2)CC1)C(=O)Nc1ccc(Cl)cc1 : 9, 5
# Listed for CN(CCC1CCCCO1)c1cc(N2CCOCC2)ncn1 (stereo not drawn) : -8, -9
# Listed for CCc1[nH]c2c(CNS(=O)(=O)c3cccnc3)cc(C)cc2c1C : 0, -5
# Listed for COc1ccc(CC(=O)Nc2nc(OCCN3CCCC3=O)cnc2-c2cc(Cl)cc(Cl)c2)cc1 : -4, -9

# (more compounds)
SMILES,NPYLR7 ag,NPYLR7 ag max-min
O=C(NCCO)C(=O)NCC1CCCO1 (stereo not drawn),3,1
CCOC(=O)c1cc(-c2cccc(NC(=O)COCc3ccccc3)c2)n(-c2ccccc2OC)n1,23,14
Cc1nc(NCc2ccco2)c2c3c(sc2n1)CCCC3,12,4
O=c1c2cnc(N3CCCCC3)nc2ccn1CCCN1CCOCC1,6,6
CC1=NN(Cc2c(Cl)cccc2Cl)c2nc3c(c(=O)n(C)c(=O)n3C)n2C1C (stereo not drawn),5,0
O=C(c1cn[nH]c1-c1ccccc1Cl)N1CCS(=O)(=O)CC1,-18&0,-21&1
COc1ccc(CC(=O)Nc2cc(C(=O)NCCC(C)C)ccc2Cl)cc1,-4,-5
CCc1nc2n(n1)C(=O)C(C(c1ccccc1)N1CCN(C(=O)c3ccco3)CC1)S2 (stereo not drawn),-4,-2
Cc1ccsc1CN(CCN(C)C)Cc1cccnc1,3,2
CC(C)(C)n1nc2c(c1NC(=O)c1ccccc1Cl)CSC2,-3,-4
COCCNC(=O)Cn1c2c(c3ccccc31)CCC2,-1,-3
Cc1cccc(CN2CCN(Cc3ccc(Cl)c(F)c3)CC2=O)c1,6,-4
O=C(c1cn(Cc2ccc(Cl)cc2)nn1)N1CCC[C@H]1CO,-5,-6
Cc1noc(C(C)NS(=O)(=O)N2CCCC2c2ccc(C)o2)n1 (stereo not drawn),7,5
CC1CCN(C(=O)c2ccccc2N2CCC(NC(=O)c3ccc(Cl)cc3)CC2)CC1,18,12
CN1C=C(C(N)=O)C=CC1=C1C(=O)c2ccccc2C1=O,4,1
CCOC(=O)Cn1ncc2c1CCN(C(=O)C1CC(=O)OC1(C)C)C2 (stereo not drawn),-1,23
Cc1nc(CSCC(=O)NC(C)c2cccc(OC(F)F)c2)cs1 (stereo not drawn),3,4
CC(=O)CSc1nc(C)nc2sc3c(c12)CCCC3,4,4
CCOc1ccccc1NC(=O)CC(=O)N(C)Cc1ccnc2ccccc12,-2,-5
O=C(c1c(F)cccc1Cl)N1CCOC(Cc2ccccc2)C1 (stereo not drawn),22,25
FC(F)(F)COCCCNc1ccc(-n2cncn2)cc1,8,7
COC1(C2=NCCN2)COc2ccccc2O1 (stereo not drawn),0,10
CC(NS(=O)(=O)c1ccc(Cl)s1)c1ccc(-n2cncn2)cc1 (stereo not drawn),-1,-2

# Part of the list above in another layout:
smiles	NPYLR7 ag	NPYLR7 ag max-min
Cc1nc(CSCC(=O)NC(C)c2cccc(OC(F)F)c2)cs1 (stereo not drawn)	3	4
CC(=O)CSc1nc(C)nc2sc3c(c12)CCCC3	4	4
CCOc1ccccc1NC(=O)CC(=O)N(C)Cc1ccnc2ccccc12	-2	-5
O=C(c1c(F)cccc1Cl)N1CCOC(Cc2ccccc2)C1 (stereo not drawn)	22	25
FC(F)(F)COCCCNc1ccc(-n2cncn2)cc1	8	7
COC1(C2=NCCN2)COc2ccccc2O1 (stereo not drawn)	0	10

# (list continues)
SMILES,NPYLR7 ag,NPYLR7 ag max-min
CCC(=O)Nc1cc(Cl)ccc1C(=O)N1CCN2CCN(C)CC2C1 (stereo not drawn),4,-3
O=C(c1ccccc1)N1CCC2(CC1)SCCN2C(=O)c1cccc(F)c1,19,16
Cc1ccc(-c2nc3ccccn3c2NC(C)(C)CC(C)(C)C)cc1,7,12
O=C(NN=Cc1c(O)ccc2ccccc12)Nc1ccccc1,-4,-10
O=C(CCSc1ccccc1Cl)NCc1ccc(N2CCOCC2)nc1,15,8
O=C(N/N=C\c1cccnc1)c1n[nH]c2c1CCCC2,1,0
COCCN(Cc1ccc(OS(C)(=O)=O)cc1)C(=O)Nc1cccc(C)c1C,-2,4
COc1cccc(CN2CCN(c3ccc(Cl)c(Cl)c3)C(=O)C2C)c1 (stereo not drawn),6,17
Cc1ccc(-c2nc3c(C)cccn3c2NC2CCCCC2)cc1,-1,2
O=C1C2C3CCC(C3NCc3ccccc3)C2C(O)N1Cc1ccccc1 (stereo not drawn),9,3
COc1cc(CCC2CCN(S(=O)(=O)c3cccc(C#N)c3)CC2)cc(OC)c1,2,5
CCc1nc2ccc(C(=O)N(C)Cc3ccco3)cn2c1N(C)C(=O)COc1ccccc1,6,2
O=S1CC/C(=N/O)c2ccccc21 (stereo not drawn),2,0
CC(C)c1ccc(OCC2c3ccsc3CCN2C(=O)CN(Cc2ccco2)C(=O)c2ccc3c(c2)OCO3)cc1 (stereo not drawn),-2,-3
Cc1ccc(Cn2c(CO)cnc2SCc2ccccc2C)cc1,1,-1
CC(=O)Nc1ccc(CN(C)c2c(C)nc3ccc(C(=O)N4CCCCC4)cn23)cc1,9,0
CN(C)S(=O)(=O)c1cccc(NS(=O)(=O)c2ccc3ccccc3c2)c1,17,28
CC(C)c1c(NS(=O)(=O)c2cccs2)c(=O)n(-c2ccccc2)n1C,0,0
CN(Cc1cnccn1)c1nc2nonc2nc1N1CCCCCC1,9&12,4&5
CCCCOc1ccc(-c2ccc(C)cc2)cc1C(=O)O,-4,-3
CCCc1ccc(C(O)c2ncc(-c3ccccc3C)[nH]2)cc1 (stereo not drawn),-1,-2
O=C(OCC(=O)N(C1CCCCC1)C1CCCCC1)c1ccco1,3,0
